From PubChem
NPR1 antag: human Npr1 receptor antagonism. P16066. HEK293 hNpr1 GloSensor cGMP, ANP-stimulated luminescence. Potency, µM (highest dose often 46.3 µM), for inactives: top-dose activity change, negative = inhibition, actives largely listed as inhibitors. 76,000 compounds, 1.6% hits. AID 1347048; active = well fitted inhibition curve with a large enough effect; inconclusive = small, poorly fitted or top-dose-only effect; inactive = no such curve, though single readings can be large or run the other way;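 note: nearly all actives have a fitted effect of over 60% in size; nearly all hits also lower the signal before the agonist is added; a reference antagonist and vehicle were the controls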
Target sequence (P16066 whole entry, looked up): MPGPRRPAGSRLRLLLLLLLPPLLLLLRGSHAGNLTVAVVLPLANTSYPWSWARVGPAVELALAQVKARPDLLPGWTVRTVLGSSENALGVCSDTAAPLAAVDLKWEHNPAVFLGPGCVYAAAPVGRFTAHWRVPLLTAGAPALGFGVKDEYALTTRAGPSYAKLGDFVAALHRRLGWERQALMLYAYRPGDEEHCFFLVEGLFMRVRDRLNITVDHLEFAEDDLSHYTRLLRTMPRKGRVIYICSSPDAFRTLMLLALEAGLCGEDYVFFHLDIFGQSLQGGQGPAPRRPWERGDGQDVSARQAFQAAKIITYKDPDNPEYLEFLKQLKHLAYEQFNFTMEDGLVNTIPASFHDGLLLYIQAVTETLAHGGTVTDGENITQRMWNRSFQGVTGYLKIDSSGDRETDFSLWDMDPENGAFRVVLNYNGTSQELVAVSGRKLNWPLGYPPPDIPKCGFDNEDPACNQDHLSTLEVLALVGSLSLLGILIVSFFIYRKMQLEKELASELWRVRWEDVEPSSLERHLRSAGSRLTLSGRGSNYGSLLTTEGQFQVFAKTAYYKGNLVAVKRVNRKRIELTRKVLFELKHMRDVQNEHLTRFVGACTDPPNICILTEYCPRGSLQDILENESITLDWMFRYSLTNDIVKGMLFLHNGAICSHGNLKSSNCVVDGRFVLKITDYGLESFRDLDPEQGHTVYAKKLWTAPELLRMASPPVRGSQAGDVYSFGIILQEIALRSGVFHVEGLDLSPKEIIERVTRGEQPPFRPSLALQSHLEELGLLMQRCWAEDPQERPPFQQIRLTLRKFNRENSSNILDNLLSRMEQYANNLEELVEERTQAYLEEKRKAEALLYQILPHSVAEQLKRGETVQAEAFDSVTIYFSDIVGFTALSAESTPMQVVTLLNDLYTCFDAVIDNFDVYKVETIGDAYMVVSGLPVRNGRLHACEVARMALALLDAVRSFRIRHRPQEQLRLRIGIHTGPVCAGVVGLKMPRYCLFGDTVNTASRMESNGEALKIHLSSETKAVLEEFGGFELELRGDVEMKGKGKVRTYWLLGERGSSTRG
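Compound pre-incubated 30 min at room temperature on GloSensor-loaded HEK293 cells stably carrying hNpr1 and the pGS-40F cGMP biosensor. Stimulation uses hNppA at 0.1 nM final; luminescence is taken at baseline and 20 min post-agonist.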
The depositor's hits bear a star; u = inconclusive; [ ] = another dose, or the depositor's remark. % is set by controls: 0 for no effect and ±100 for the full control effect; potency is the fitted concentration of half-maximal effect. Not all compounds are listed; the hit share may differ from the screen's.

NPR1 antag | Structure
1.4%[70.6 µM] | CC(C)(C)CC(=O)Nc1ccc([C@@H](O)[C@H]2COCC(=O)N2Cc2ccc(F)cc2)cc1
-5.0% | Cc1[nH]c2c(C)ccc(C)c2c1CC(=O)N1Cc2ccccc2C(O)C1 (centres undefined)
3.9% | COC(=O)[C@@H](Cc1c[nH]c2ccccc12)NC(=O)[C@@H]1CN(C(=O)Nc2ccccc2)CCN1C(=O)NC(C)C
12.6% | Cc1ccc(C(=O)N2C[C@@H](CO)[C@H](c3ccncc3)C2)c(C)c1
8.3% | CCn1nccc1C(=O)NCCc1ncc(C)n1CCOC
-0.4% | Cc1nc(NCCN2CCCC(C(N)=O)C2)c2cccnc2n1 (centres undefined)
21.0% | O=C(NCc1cccc(Cl)c1)C1CN(c2ccc(Cl)cc2)C(=O)N1 (centres undefined)
3.2% | CCCc1cc(C(=O)N2CCC(=O)N(CC3CC3)C(C(C)C)C2)cs1 (centres undefined)
-0.3% | O=C(C1CC(=O)N(c2ccc(F)c(Cl)c2)C1)N1CCc2c(nc[nH]c2=O)C1 (centres undefined)
1.4%[70.6 µM] | O=C1[C@@H]2C[C@@H](CN2C(=O)C2CC2)Oc2ccccc2N1Cc1ccccc1
10.2% | O=C(CC1CCOCC1)NCC1CCN(Cc2ccccc2F)CC1
3.3% | COC[C@@H]1CN(Cc2ccc(OC)cc2OC)C[C@H]1c1nc(C)no1
-17.0% | CCC(c1cccs1)N1C(=O)[C@H]2CN(S(=O)(=O)c3cccc(OC)c3)C[C@H]2C1=O (some centres undefined)
-0.4% | O=C(NC1CC1)c1ccccc1OCC1CCCN(Cc2cn[nH]c2-c2ccc(F)cc2)C1 (centres undefined)
3.4% | O=C(N1CCCC1)N1CCN(c2ncnc3sccc23)CC(O)C1 (centres undefined)
-20.5% | O=C(NC1CCN(c2cc(-c3ccccc3)[nH]n2)CC1)c1ccccc1Cl
2.1% | O=C(c1ccc(F)cc1F)N1C[C@@H](CO)[C@H](c2nc(C3CC3)no2)C1
3.1% | COc1ccc(C(=O)N[C@H]2C[C@H]3C(=O)Nc4ccc(-c5ccsc5)cc4C(=O)N3C2)cc1
4.6%[70.6 µM] | CC(=O)Nc1ccc(CN2CCN3C(=O)N(C)C[C@H]3C2)cc1
11.6%[70.6 µM] | Cn1cccc1CN1CCC2(CC1)NC(=O)c1ccccc1O2
-3.0%[70.6 µM] | O=C(NCc1cccnc1)c1nc(-c2ccccc2)cc2[nH]ccc12
2.3% | N[C@H]1CN(S(=O)(=O)c2ccc(OC(F)F)cc2)C[C@@H]1C1CC1
-0.8%[70.6 µM] | CN1CCN(Cc2nc(C3(O)CCN(CC4CC4)CC3)cs2)CC1
u | Cc1cc(=O)n(CC(=O)Nc2ccc(C)c(F)c2)c(N(C)Cc2ccccc2)n1
-6.7% | CN1C(=O)C(CC(=O)N2CCC(CO)CC2)(Cc2ccccc2)c2ccccc21 (centres undefined)

Reformatted with tabs: part of the list above.
canonical_smiles	NPR1 antag
CC(C)(C)CC(=O)Nc1ccc([C@@H](O)[C@H]2COCC(=O)N2Cc2ccc(F)cc2)cc1	1.4%[70.6 µM]
Cc1[nH]c2c(C)ccc(C)c2c1CC(=O)N1Cc2ccccc2C(O)C1 (centres undefined)	-5.0%
COC(=O)[C@@H](Cc1c[nH]c2ccccc12)NC(=O)[C@@H]1CN(C(=O)Nc2ccccc2)CCN1C(=O)NC(C)C	3.9%
Cc1ccc(C(=O)N2C[C@@H](CO)[C@H](c3ccncc3)C2)c(C)c1	12.6%
CCn1nccc1C(=O)NCCc1ncc(C)n1CCOC	8.3%
Cc1nc(NCCN2CCCC(C(N)=O)C2)c2cccnc2n1 (centres undefined)	-0.4%
O=C(NCc1cccc(Cl)c1)C1CN(c2ccc(Cl)cc2)C(=O)N1 (centres undefined)	21.0%
CCCc1cc(C(=O)N2CCC(=O)N(CC3CC3)C(C(C)C)C2)cs1 (centres undefined)	3.2%
O=C(C1CC(=O)N(c2ccc(F)c(Cl)c2)C1)N1CCc2c(nc[nH]c2=O)C1 (centres undefined)	-0.3%
O=C1[C@@H]2C[C@@H](CN2C(=O)C2CC2)Oc2ccccc2N1Cc1ccccc1	1.4%[70.6 µM]
O=C(CC1CCOCC1)NCC1CCN(Cc2ccccc2F)CC1	10.2%
COC[C@@H]1CN(Cc2ccc(OC)cc2OC)C[C@H]1c1nc(C)no1	3.3%
CCC(c1cccs1)N1C(=O)[C@H]2CN(S(=O)(=O)c3cccc(OC)c3)C[C@H]2C1=O (some centres undefined)	-17.0%
O=C(NC1CC1)c1ccccc1OCC1CCCN(Cc2cn[nH]c2-c2ccc(F)cc2)C1 (centres undefined)	-0.4%
O=C(N1CCCC1)N1CCN(c2ncnc3sccc23)CC(O)C1 (centres undefined)	3.4%
O=C(NC1CCN(c2cc(-c3ccccc3)[nH]n2)CC1)c1ccccc1Cl	-20.5%
O=C(c1ccc(F)cc1F)N1C[C@@H](CO)[C@H](c2nc(C3CC3)no2)C1	2.1%
COc1ccc(C(=O)N[C@H]2C[C@H]3C(=O)Nc4ccc(-c5ccsc5)cc4C(=O)N3C2)cc1	3.1%
CC(=O)Nc1ccc(CN2CCN3C(=O)N(C)C[C@H]3C2)cc1	4.6%[70.6 µM]
Cn1cccc1CN1CCC2(CC1)NC(=O)c1ccccc1O2	11.6%[70.6 µM]

Returning to the listing with the three entries that preceded the break.
NPR1 antag | Structure
-0.8%[70.6 µM] | CN1CCN(Cc2nc(C3(O)CCN(CC4CC4)CC3)cs2)CC1
u | Cc1cc(=O)n(CC(=O)Nc2ccc(C)c(F)c2)c(N(C)Cc2ccccc2)n1
-6.7% | CN1C(=O)C(CC(=O)N2CCC(CO)CC2)(Cc2ccccc2)c2ccccc21 (centres undefined)
-2.9% | O=C1CCC2(CCCN(C(=O)c3ccnc(-n4cnnc4)c3)C2)CN1CC1CC1 (centres undefined)
5.3% | CCCC(=O)N1CCN(C2CCN(CCC(C)C)C2=O)CC1 (centres undefined)
-3.3% | CCCNC(=O)CN1C(=O)NC(c2ccccc2OCC)C2=C1COC2=O (centres undefined)
19.7% | Cc1ccc(C2Cn3nnc(-c4noc(-c5cccc(N(C)C)c5)n4)c3CO2)cc1 (centres undefined)
0.5% | OC[C@@H]1CNC[C@H]1c1nc(C2CC2)no1
-0.2%[70.6 µM] | CN(Cc1ccccc1)C1CCCc2ccccc21 (centres undefined)
u | C[C@@H]1CN(C(=O)c2ccc3c(c2)NC(C)(CCCCc2ccccc2)CO3)C[C@H](C)O1 (some centres undefined)
0.0%[70.6 µM] | O=C(C1CCCCC1)N1CC[C@H](c2nc3ccc(C(F)(F)F)cc3[nH]2)C1
1.1% | COC(=O)c1nc(NC(=O)Cn2nc3c(cc2=O)CCCC3)sc1C(C)C
-0.5% | COc1ccc(Cl)cc1C(=O)N1CCC2(CC1)CC(O)CCO2 (centres undefined)
2.7% | O=C(Cc1c[nH]c2ccccc12)N[C@@H]1[C@@H]2CCO[C@@H]2[C@@H]1C1CCCC1
-17.1% | CSc1cccc(NC(=O)N2C[C@H](c3nc(-c4ccncc4)no3)[C@@H](C)C2)c1
0.0% | COCc1nc(CCNC(=O)NCC(C)C)no1
-0.1% | COc1ccc(C(=O)N2CCCC2)c(OC2CCN(C(=O)C3C=CCN3)CC2)c1 (centres undefined)
-3.4% | Cc1nn(-c2ccc(F)cc2)c(C)c1CNC(=O)C1NCCc2[nH]cnc21 (centres undefined)
3.1% | C[C@@]1(O)CCN(Cc2ccc(Br)o2)C[C@H]1N1CCCC1
2.2% | CN(CC(=O)N1CCNCC(C(=O)O)C1)Cc1ccncc1 (centres undefined)
-5.0% | O=C1[C@H]2CN(Cc3cccc(F)c3F)C[C@H]2C(=O)N1Cc1ccc2c(c1)OCO2
1.9% | O=C(c1ccsc1)N1CCC(Oc2ccccc2-c2nc(C3CC3)no2)C1 (centres undefined)
0.6% | Cn1cc(C(=O)N2CCCC(Cc3noc(-c4cccnc4)n3)C2)cn1 (centres undefined)
-24.3% | COc1ccc(C(=O)Nc2ccc3c(c2)CN(Cc2ccc(OC)cc2OC)C(=O)C(C)O3)cc1 (centres undefined)
5.2% | CCc1nnc(CNC(=O)c2cn(CCN3CCNCC3)nn2)s1
-9.7%[70.6 µM] | CN1CCNc2nc(COc3ccc(Cl)cc3)n(Cc3ccccc3)c2C1=O
4.0% | Cn1ccnc1CN1CCN(CC2(O)CCNC2)CC1 (centres undefined)
-0.8% | Cc1ccc(-c2nnc(C3CN(C(=O)c4ccccc4)CC34CCOCC4)o2)cc1 (centres undefined)
1.2%[70.6 µM] | COCCNC(=O)C[C@@H]1O[C@H](Cn2cc(CN(C)Cc3ccccc3)nn2)[C@@H](O)[C@H]1O
1.0% | O=C(CCC1CCCN(C(=O)c2ccc3c(c2)OCO3)C1)NCc1ccccc1Cl (centres undefined)
11.0% | COc1ccc(OCc2nc(C(=O)NC(C)c3ccccc3)co2)cc1 (centres undefined)
2.1% | CN(C)C(=O)c1ccc(OC2CCN(C(=O)C3CCCC3)CC2)nc1
0.0% | Cc1ccccc1CC(=O)N1CCCN(c2cc(-c3ccc(Cl)cc3)[nH]n2)CC1
-1.5%[70.6 µM] | CC(=O)N1CCC(N2CC[C@H](c3nc4ncccc4[nH]3)C2)CC1
5.0% | Cn1cc(CN2CCn3c(nnc3[C@@H]3C[C@@H](O)CN3Cc3ccccc3)C2)c2ccccc21
-30.5% | Cc1ccsc1C(=O)N1CCC2(CC1)NCCc1c2[nH]c2ccccc12
-9.5% | O=C(c1cncc(Br)c1)N1CCC(n2c(=O)[nH]c3ccccc32)CC1
-2.9% | Cc1cc(CNC(=O)[C@@H]2CCC[C@@H](NC(=O)c3ccc(C#N)cc3)CN(C)C(=O)C2)no1
1.0% | Cc1cc(N2CCC3(CCCN(C)C3=O)C2)c2ccccc2n1 (centres undefined)
8.3% | CNC(=O)[C@@H]1C[C@H](Oc2ccccc2)CN1C(=O)COc1ccc(F)cc1
-2.7% | O=C(N[C@@H]1CCN(Cc2cccc3nonc23)C[C@H]1O)c1cccnc1
3.7%[70.6 µM] | CN1C[C@H](NCc2ccc(F)cc2)CCC[C@@H](C(=O)NC2CC2)CC1=O
14.3%[70.6 µM] | Cc1nn2c(c1-c1ccnn1C(C)C)N(C(=O)COc1ccccc1C(N)=O)CCC2
1.1% | O=C(Cn1nc2c(cc1=O)CCCC2)N1CCc2c([nH]c3ccccc23)C1
0.5% | CCOc1ccc(C(=O)N2CCC3(CC2)C(=O)N(CC)c2ccccc23)cc1OCC
3.1%[70.6 µM] | Cc1ccc(-c2nnc([C@H]3CCN(C(=O)COc4ccccc4)C3)o2)cc1
u | COCc1nc(-c2ccc(OC3CN(C(=O)NCc4ccccc4)C3)cc2)no1
3.1%[70.6 µM] | COC(=O)[C@@H]1Cc2ncn(C(C)C)c2CN1C(=O)c1ccc(C(F)(F)F)cc1
2.7% | CCc1ccc(C(=O)NC2CCN(c3cnn(CC)c(=O)c3)CC2)cc1
0.9% | COc1ccc(CN2CC[C@H](CNC(=O)C3CC3)[C@H](N(C)C)C2)c(OC)c1
